# Screening data from PubChem BioAssay.
# StopGo reporter = lowers the luciferase signal of an FMDV 2A StopGo reporter; human cells with a luciferase reporter of 2A StopGo recoding; control for the full effect not named in the record; 410,000 compounds, 1.2% hits; Potency, µM (doses to about 57.9 µM), for inactives: at the highest dose signal change, negative = less light; AID 1159524; active = well fitted falling curve with a large enough effect; inconclusive = small, poorly fitted or top-dose-only effect; inactive = no such curve, though single readings can be large or run the other way; tested in HEK293T cells; also: % is scaled to controls: 0 for no effect and ±100 for the full control effect; nearly all actives have a fitted effect of over 45% in size; luciferase light after 4 h
# LASV entry inh = Lassa virus entry inhibition. Lassa virus pseudotype entry inhibition, cell reporter; control for the full effect not named in the record. 300,000 compounds, 1.2% hits. AID 540256. Potency, µM (doses to about 37.9 µM), for the others: top-dose activity change, negative = inhibition, most hits filed as inhibitors; active means well fitted inhibition curve with a large enough effect; inconclusive means small, poorly fitted or top-dose-only effect, or effect the other way; inactive means flat fitted curve, though single readings scatter; tested in HEK293 cells; also: % is scaled to controls: 0 for no effect and ±100 for the full control effect; nearly all actives have a fitted effect of over 50% in size; luciferase read-out
# SARS PLP yeast = blocks SARS-CoV papain-like protease in a yeast assay; Potency, µM (doses to about 32.9 µM), for the others: at the top dose activity, positive = growth rescue; 330,000 compounds, 0.19% hits; S. cerevisiae expressing SARS-CoV PLpro, growth rescue; control for the full effect not named in the record; AID 485353; active means well fitted rising curve with a large enough effect; inconclusive means small, poorly fitted or top-dose-only effect; inactive means no such curve, though single readings can be large or run the other way; also: 0% is about no effect; nearly all actives have a fitted effect of over 55% in size; growth read by luminescence after 48 h
# RE007 growth inh = less growth of the S. pombe RE007 Vpr strain | S. pombe RE007 Vpr strain, BacTiter-Glo ATP luminescence, 24 h; control for the full effect not named in the record | Potency, µM (titrated, usually from 92.2 µM), without a hit: at the top dose activity change, negative = less growth | 360,000 compounds, 0.21% hits | AID 651644; active = well fitted falling curve with a large enough effect; inconclusive = small, poorly fitted or top-dose-only effect; inactive = no such curve, though single readings can be large or run the other way;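 also: % is scaled to controls: 0 for no effect and ±100 for the full control effect; nearly all actives have a fitted effect of over 50% in size; the assay follows cell death caused by Vpr and the record does not say whether a fall means rescue or toxicity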
#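 Fission yeast RE007 carrying one integrated HIV-1 vpr copy, seeded at OD 0.01 in PMG+AL medium with 23 nL pinned compound. Grown 24 h at 30 degrees; viability read by BacTiter-Glo luminescence after 5 min.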
# Marburg entry inh = inhibitors of Marburg virus binding or cell entry; AID 540276; Potency, µM (titrated, usually from 37.8 µM), inactives show top-dose activity change, negative = inhibition, actives largely listed as inhibitors; Marburg virus pseudotyped entry inhibition, cell reporter; control for the full effect not named in the record; about a third of the inactives were read at about 46 µM; 300,000 compounds, 1.8% hits; active = well fitted inhibition curve with a large enough effect; inconclusive = small, poorly fitted or top-dose-only effect, or effect the other way; inactive = flat fitted curve, though single readings scatter; tested in HEK293 cells; about a fifth of its hits are not listed in these tables; also: % is scaled to controls: 0 for no effect and ±100 for the full control effect; luciferase read-out
# NS1 function inh = inhibitors of influenza NS1 protein function; AID 2326; Potency, µM (highest dose often 46.1 µM), inactives show top-dose activity, positive = more growth; 270,000 compounds, 0.4% hits; S. cerevisiae slowed by influenza A NS1, growth recovery by OD600; active means well fitted rising curve with a large enough effect; inconclusive means small, poorly fitted or top-dose-only effect; inactive means no such curve, though single readings can be large or run the other way; also: nearly all actives have a fitted effect of over 50% in size
#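 Read-out: OD600 growth recovery of NS1-expressing budding yeast. Cells grown overnight at 30C in -URA glucose medium, washed, resuspended and diluted 1:100 in 2% galactose assay medium, pH 6.0. Same strain lacking NS1 served as positive control.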
# Cruzain inh noDet = blocks cruzain activity in detergent-free assay; Potency, µM, without a hit: max response, negative = inhibition, actives largely listed as inhibitors; purified cruzain, Z-FR-AMC fluorescence, no detergent; P25779; AID 1476; 200,000 compounds, 2.3% hits;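 also: plate controls were enzyme without inhibitor for no effect and buffer without enzyme for full effect; nearly all actives have a fitted effect of over 40% in size; top concentration of the series not given in the record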
# Target sequence (P25779 123-467 limits assumed): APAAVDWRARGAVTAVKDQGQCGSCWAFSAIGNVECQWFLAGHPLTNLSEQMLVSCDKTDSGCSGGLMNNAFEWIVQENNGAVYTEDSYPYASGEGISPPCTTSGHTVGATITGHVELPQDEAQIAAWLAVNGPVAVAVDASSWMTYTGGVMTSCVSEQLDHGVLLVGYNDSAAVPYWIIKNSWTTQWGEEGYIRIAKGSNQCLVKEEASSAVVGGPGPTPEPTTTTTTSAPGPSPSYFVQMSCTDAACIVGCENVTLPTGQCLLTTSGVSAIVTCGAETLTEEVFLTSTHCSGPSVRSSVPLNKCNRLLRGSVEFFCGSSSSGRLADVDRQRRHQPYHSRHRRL
#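 Detergent-free condition (0.00005% Triton X-100) in acetate buffer pH 5.5 with DTT. 1.5 nM enzyme and compound were pre-mixed 15 min, then 2 uM Z-FR-AMC substrate added; reaction progress from fluorescence change between first and third reads (60 s).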
# Cruzain inh Det = inhibitors of Trypanosoma cruzi cruzain with detergent | AID 1478 | P25779 | purified cruzain, Z-FR-AMC fluorescence, 0.01% Triton | 200,000 compounds, 0.43% hits | Potency, µM, for inactives: max response, negative = inhibition, usual class: inhibitors;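 also: plate controls were neutral wells for no effect and buffer without enzyme for full effect; nearly all actives have a fitted effect of over 40% in size; top concentration of the series not given in the record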
#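 Enzyme 1.5 nM, Z-FR-AMC 2 uM, NaOAc 100 mM pH 5.5, DTT 5 mM, Triton X-100 0.01%; 15 min RT compound preincubation; kinetic ex360/em450, 60 s delta.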
# Starred values were filed as active, the others as inactive; u = inconclusive; x = no result given; & = joins results of further samples; [ ] = dose if it differs, or a comment. Unless noted, calls follow the shape of the dose curve; as a rule, active = well fitted curve in the direction sought with a large enough effect; inconclusive = small, poorly fitted or top-dose-only effect, or another doubt; inactive = no such curve, though single readings can be large; an effect the other way counts as inactive or inconclusive. Potency is read from the fitted curve at half-maximal effect.
# Values run as follows: StopGo reporter	LASV entry inh	SARS PLP yeast	RE007 growth inh	Marburg entry inh	NS1 function inh	Cruzain inh noDet	Cruzain inh Det
> Cc1cc(NC(=O)CCCn2c(C)c3cnn(-c4ccccc4)c(=O)c3c2C)ccc1Br
 : -1%	0%[46.1 µM]	x	x	-14%[46.1 µM]	x	-14%	-6.3%
> Cn1c(=O)[nH]c(=O)c2c1nc(N/N=C/c1ccncc1)n2Cc1ccc(Cl)cc1
 : 36%[activator]	-3%	-4%	2%	12%	2%	x	x
> O=C(NCc1ccc2c(c1)CCN2C(=O)c1ccc(Cl)cc1)c1cccc(F)c1
 : -9%	-9%[46.1 µM]	x	x	x	x	12%	1.1%
> Cc1ccc(OCc2cc(=O)n3c4c(sc3n2)CCCC4)c(C)c1
 : -20%	25%[46.1 µM]	x	x	14%[46.1 µM]	x	10%	-1.4%
> O=C1C(c2ccncc2)N(CCC2=CCCCC2)C(=O)CN1C1CCCCC1 (stereo not given)
 : -21%	-19%	2%	11%	-8%	-10%	u	2.4%
> Cc1ccc(NC(=O)CN2C(=O)CCc3cc(S(=O)(=O)N4CCCCC4)ccc32)cc1N(C)C
 : 0%	-3%[46.1 µM]	x	x	x	x	16%	-3.2%
> O=C(NCc1ccccc1Cl)C1CCC(CNS(=O)(=O)c2ccc(Br)s2)CC1 (stereo not given)
 : 1%	-24%[46.1 µM]	x	x	u	x	-4%	-1.0%
> COc1ccc(-n2c(Cc3ccccc3)nnc2SCc2ccc([N+](=O)[O-])cc2)cc1
 : -9%	2%	12%	4%	u	2%	u	-1.9%
> CCOC(=O)C1=C(C)N(CCCCCC(=O)O)C(=O)NC1c1ccc([N+](=O)[O-])cc1 (stereo not given)
 : 16%	x	7%	2%	x	5%	x	x
> COc1ccc(/C=C/C(=O)Nc2ccc3nc4c(c(Nc5ccccc5OC)c3c2)CCCC4)cc1
 : 0%	22%[46.1 µM]	x	x	u	x	-73%	-28%
> O=C(Nc1ccc(Cl)cn1)c1ccc2nccnc2c1
 : -12%	-15%[46.1 µM]	-5%	-15%	u	-4%	x	x
> CCN1CCN(CCCNC(=O)Cn2nc(C)n3nc(-c4ccccc4)cc3c2=O)CC1
 : -6%	27%[46.1 µM]	-8%	-8%	u	0%	x	x
> O=S(=O)(Nc1cccc(Br)c1)c1cccc2nsnc12
 : 59%[activator]	u	3%	12%	u	-8%	x	x
> Cc1cc(NC(=O)C2CC(c3ccc(F)cc3)=NO2)no1 (stereo not given)
 : 5%	x	4%	-7%	x	-5%	-4%	-0.6%
> CCN(CC)C(=O)c1ccc(S(=O)(=O)N2CCC(c3nc4ccccc4s3)CC2)cc1
 : x	u	29%	-2%	u	11%	u	-3.5%
> Cc1ccccc1Cc1c(C)nc2nc(SCC(=O)N(C)c3ccccc3)nn2c1C
 : 0%	-30%[46.1 µM]	x	x	x	x	-6%	0.1%
> CCOC(=O)N1CCC(NC(=O)CCc2nc(C3=CCN(C)CC3)no2)CC1
 : 3%&11%	u	4%	-11%&1%	2%&17%	-8%	-1%	0.0%
> Cc1noc(/C=C/N(C)C)c1S(=O)(=O)N1CCCC(C(=O)Nc2ccc3c(c2)OCO3)C1 (stereo not given)
 : -16%	x	5%	2%	-2%	-9%	-2%	-11%
> COc1ccc(Cl)cc1NC(=O)C1CCCN(S(=O)(=O)c2ccc3c(c2)CCCC(=O)N3)C1 (stereo not given)
 : -22%	u	x	x	x	x	u	-8.3%
> CC(C)(C)NC(=O)C1CN(S(=O)(=O)c2ccccc2)CCN1S(=O)(=O)c1ccccc1 (stereo not given)
 : 0%	-12%	-1%	24%	-17%&-17%	-6%	2%	2.9%
> O=C(COC(=O)CCc1ccccc1)Nc1ccc(F)cc1Cl
 : -10%	-16%[46.1 µM]	-6%	-5%	3%[46.1 µM]	-19%	x	x
> COc1cccc(/C=N/N2CCN(C)CC2)c1
 : 22%	0%	-23%	-10%	-1%	-1%	-4%	2.0%
> COc1ccc(NC(=O)CN2C(=O)C(c3ccccc3)=NC23CCC(C)CC3)cc1Cl (stereo not given)
 : -19%	-22%[46.1 µM]	x	x	20µM*	x	1%	-8.7%
> CC(NS(=O)(=O)c1ccc(Br)cc1)C(c1cccs1)N1CCOCC1 (stereo not given)
 : -15%	-14%	-4%	-7%	6%	-28%	10%	-2.4%
> Cc1ccc(CSc2nc3nc(C)cc(C)n3n2)cc1
 : 53%[activator]	u	-9%	-9%	4%	-21%	x	x
> CCOC(=O)C1CCCN(c2ncnc3c2oc2ccccc23)C1 (stereo not given)
 : u	u	-5%	-13%	4%	-81%	0%	-6.3%
> c1nc(N2CCCCCC2)c2[nH]cnc2n1
 : -8%	x	1%	5%	x	-105%	7%	-1.9%
> CC1CCN(C(=O)Cn2c(=O)n(CCc3ccccc3)c(=O)c3ccccc32)CC1
 : u	-9%	1%	2%	21%	-26%	-12%	-3.2%
> CCCc1nn2c(=O)cc(COC(=O)c3ccc(NC(=O)COc4ccc(F)cc4)cc3)nc2s1
 : 1%	3%[46.1 µM]	x	x	x	x	3%	1.2%
> CC(c1ccccc1)N1CCn2c(nc3cc(NS(C)(=O)=O)ccc32)C1 (stereo not given)
 : -22%	10%	0%	1%	-6%[46.1 µM]	7%	x	x
> COc1ccc(N2CCN(C(=O)c3cccc(Cn4cc(Cl)cn4)c3)CC2)cc1
 : x	-21%	x	-11%	4%	-57%	15%	-1.3%
> COc1ccccc1CNS(=O)(=O)c1ccc(NC(C)=O)cc1
 : -10%	36%[14.3 µM]	6%	-4%	-17%	-4%	-9%	1.9%
> COc1ccc(/C=C2\CCC/C(=C\c3ccc(OC)c(OC)c3OC)C2=O)c(OC)c1OC
 : u	x	1%	-1%	x	7%	x	x
> CC(C)OCCCN1C(=O)c2[nH]nc(-c3ccccc3O)c2C1c1cccc(OCc2ccccc2)c1 (stereo not given)
 : u	u	x	x	u	x	-12%	-8.6%
> Cn1cc(CNC(=O)c2ccc3nc(Cc4ccccc4F)oc3c2)cn1
 : -4%	-16%	-5%	-22%	7%	-8%	x	x
> COC(=O)c1nnn(CC(=O)Nc2cc(Cl)ccc2C)c1C(=O)OC
 : -20%	15%	-2%	12%	11%	2%	5%	2.5%
> Cc1ccc(C)c(OCc2cc(C(=O)N3CCN(c4ccccc4C)CC3C)no2)c1 (stereo not given)
 : 1%	u	17%	-13%	u	13%	x	x
> CCCCOCCCNC(=O)c1c(-c2ccccc2)noc1C
 : -24%	u	-4%	7%	-1%	-7%	1%	3.6%
> C(=N\Nc1nc(N2CCCC2)nc(N2CCCC2)n1)/c1cccnc1
 : -11%	8%[46.1 µM]	0%	-9%	2%[46.1 µM]	9%	x	x
> CN(C)CCCn1c2c(c(SCC(=O)Nc3cccc4ccccc34)nc1=O)CCC2
 : 15%	1%	-2%	u	u	x	x	x
> O=C(c1ccco1)N1CCN(S(=O)(=O)c2ccc3c(c2)CCN3C(=O)C2CCC2)CC1
 : -12%	u	8%	13%	-5%	-9%	23%	-4.1%
> Cc1cc(C)c(S(=O)(=O)N2CCN(C)CC2)c(C)c1
 : 8%	12%	3%	8%	23%	6%	12%	5.9%
> CN(CC(=O)Nc1ccc(Cl)cc1)CC(=O)Nc1cccc(Br)c1
 : -24%	-21%	-3%	-23%	0%[46.1 µM]	-10%	x	x
> CCOC(=O)c1cnc2c(ccc3ccccc32)c1NCCO
 : -2%	1%	-11%	u	u	-15%	-9%	-8.0%
> Cc1ccc(Nc2nc(-c3sc(NC(=O)c4ccccc4)nc3C)cs2)cc1
 : 22%	x	2%	-6%	x	u	32µM*	-2.8%
> COCCN1C(=O)c2ccccc2C(C(=O)NCCCN2CCCC2)C1c1c[nH]c2ccccc12 (stereo not given)
 : -3%	1%	6%	15%	42%	-11%	-12%	-6.7%
> C/C(=C\C(=O)c1ccc(F)cc1)NCc1ccc2c(c1)OCO2
 : 0%	-2%	1%	-6%	-15%	-7%	-8%	-8.6%
> COc1ccc(C(=O)Oc2cc(N)n(S(=O)(=O)c3ccc(C)cc3)n2)cc1
 : 6%	3%	1%	-15%	12%[46.1 µM]	12%	x	x
> CC(=O)Nc1ccc(S(=O)(=O)N/N=C/c2cccnc2)cc1
 : 22%	x	7%	-3%	x	2%	x	x
> Cc1ccc(S(=O)(=O)N(C)CC(=O)N(CC(C)C)C2CCS(=O)(=O)C2)cc1 (stereo not given)
 : -18%	-19%	-2%	-9%	12%[46.1 µM]	x	x	x
> CCc1ccccc1NC(=O)CN(C)C(=O)Cn1cnc2ccc(Cl)cc2c1=O
 : -26%	-1%	-6%	2%	1%	x	x	x
> CC(C)(C)n1nc2c(c1NC(=O)c1ccc(C(F)(F)F)cc1)CS(=O)(=O)C2
 : -24%	-9%	u	19%	6%	1%	x	x
> CCc1cc(C(=O)OC)c(NC(=O)CSc2nccn2C)s1
 : 0%	-6%	22%	-17%	1%	-20%	x	x
> CCC(=O)Nc1ccc(C(=O)OCc2ccccc2Cl)cc1
 : 35%[activator]	u	-44%	13%	-18%	-201%	10%	-8.1%
> COc1cc(C2c3sc(=O)[nH]c3SC3C(=O)N(c4ccc(C)cc4)C(=O)C32)ccc1O (stereo not given)
 : -20%	x	-1%	1%	x	22%	x	x
> COc1ccc(-n2ncc3c(=O)n(CC(=O)N(C(C)C)C(C)C)cnc32)cc1
 : -5%	0%[46.1 µM]	-6%	-1%	8%[46.1 µM]	-12%	x	x
> Cc1cc(=O)[nH]c(N=N/C(=N/Nc2ccccc2C)c2ccccc2)n1
 : -9%	4µM*	-4%	8%	0.79µM*	-4%	u	1.0%
> O=C(NC(Cc1ccccc1)C(=O)O)/C(=C\c1ccco1)NC(=O)c1ccc(Br)cc1 (stereo not given)
 : -6%	8%	3%	-12%	5%	17%	4%	-4.7%
> CCCCN(C(=O)c1ccc(NC(=O)C(C)C)cc1)c1ccccc1
 : -4%	u	0%	4%	u	-4%	x	x
> Cc1ccc(OCc2cc(C(=O)N3CCC(c4ccccc4Cl)C3)no2)cc1C (stereo not given)
 : 31%[activator]	x	-7%	-3%	x	28%	x	x
